Bioassay records (PubChem)
MgrA-DNA mod: S. aureus MgrA-DNA binding modulation. fluorescence polarization. actives 0.13% (n = 84,000). inhibition, %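 (about 10 µg/mL by stock and volumes)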;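 active = above 50% in either of two replicates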;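 note: 0% = protein plus DNA without compound and 100% = DNA alone without protein; higher means less MgrA bound to DNA so lower polarization; one replicate is shown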
Sa helicase inh: S. aureus DNA helicase inhibition. purified S. aureus helicase, fluorescence unwinding assay; about half of the hits fall short of the stated cut. inhibition, %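 (tested at about 80 µM)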. actives 0.05% (n = 120,000);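 active = both duplicates at 50% or more, or one of them with a favoured structure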;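 note: 0% = mean of negative control wells and 100% = mean of positive control wells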
Active calls of the source: *; & = joins results of further samples. Not all compounds are listed; rates above refer to the full screens.

For O=C(Nc1ccc(Cl)cc1)N1CCOC1c1cccs1 (centres undefined) the results were Sa helicase inh -12.0.
COc1ccc(-c2nc(C)c(CCNC(=O)c3cccc(C(F)(F)F)c3)s2)cc1 was read as MgrA-DNA mod 1.1 and Sa helicase inh 3.0.
For CNC(=O)Cn1ncc2c3ccccc3n(C)c2c1=O the results were Sa helicase inh 0.0.
Screening CC(=O)N1N=C(c2cc3ccccc3o2)OC1c1c(C)[nH]c(=O)[nH]c1=O (centres undefined) returned Sa helicase inh 5.0.
Cc1nn(CCCC(=O)N2CCCC2)c(=O)c2c1sc1ccccc12 was read as MgrA-DNA mod 4.6 and Sa helicase inh 9.0.
CC1CCc2ccccc2N1C(=O)c1cccs1 (centres undefined) was read as MgrA-DNA mod -2.2 and Sa helicase inh -18.0.
Cc1c2cnn(CC(=O)N3CCCC3)c(=O)c2c(C)n1Cc1ccccc1 was read as Sa helicase inh -28.0.
For CC(=O)Oc1c(C)cc(C)c2ccc(C)nc12 the results were MgrA-DNA mod 5.2 and Sa helicase inh 4.0.
`O=C(Nc1c(C(=O)c2ccccc2)oc2ccccc12)c1ccccc1F` gave Sa helicase inh 14.0.
Screening CN1C(=O)/C(=C\c2ccc(Cl)cc2Cl)OC1=S returned MgrA-DNA mod 0.9 and Sa helicase inh 8.0.
`O=C(CSc1nnc2scc(-c3ccc(Cl)cc3)n12)c1ccc2c(c1)OCO2` gave MgrA-DNA mod 0.1 and Sa helicase inh 5.0.
Screening Cc1nn(CCC#N)c(C)c1Oc1ccccc1O returned MgrA-DNA mod -0.3 and Sa helicase inh 17.0.
Screening COc1cc(/C=N/NC(=O)c2ccoc2C)ccc1OCC(=O)N1C(C)CCCC1C (centres undefined) returned Sa helicase inh -7.0.
O[C@@H]1C2C3CC4C5C3C1C5[C@@H](O)C42 (some centres undefined) was read as MgrA-DNA mod 2.8.
`O=C(NCC1CCCO1)N1CCOCC1` (centres undefined) gave Sa helicase inh -27.0.
Screening CNC(=O)COC(=O)c1cccn1C returned Sa helicase inh -7.0.
Screening COC(=O)C(Cc1cccc(C)n1)(c1ccccc1)c1ccccc1 returned MgrA-DNA mod 0.4.
CC(C(=O)Nc1ccc(S(N)(=O)=O)cc1)N(C)Cc1ccccc1F (centres undefined) was read as Sa helicase inh 4.0.
`Cc1ccc(C(=O)COC(=O)c2cc3cc(Br)ccc3oc2=O)cc1` gave Sa helicase inh -19.0.
Cc1ccc2nc(-c3cccc4ccccc34)[nH]c2c1 was read as MgrA-DNA mod -2.8.
Screening O=C1CCC(C(=O)Nc2sc3c(c2-c2nc4ccccc4[nH]2)CCCC3)=NN1 returned Sa helicase inh -13.0.
Screening CC1=CC(C)C2C(=O)N(Cc3ccc[n+](C)c3)C(=O)C2C1 (centres undefined) returned Sa helicase inh -14.0.
Screening Cn1c(=O)c(C#N)cn(-c2ccccc2)c1=O returned MgrA-DNA mod -1.7.
Screening Cc1ccc(C)c(S(=O)(=O)N/N=C/c2ccc3c(c2)OCO3)c1 returned Sa helicase inh -5.0.
Screening Cc1[nH]c2ccccc2c1/C=N\NC(=O)Cn1nnc(-c2ccccc2)n1 returned MgrA-DNA mod -2.1 and Sa helicase inh 11.0.
O=C(C1CCN(S(=O)(=O)c2ccc3nc(-c4ccccc4)[nH]c3c2)CC1)N1CCCCC1 was read as Sa helicase inh -28.0.
Screening O=S(N=C(c1ccccc1)c1ccccc1)c1ccccc1 (centres undefined) returned MgrA-DNA mod 0.1 and Sa helicase inh 3.0.
CCN(CC)S(=O)(=O)c1ccc(-c2csc(=Nc3ccc(C)cc3)n2C)cc1 was read as MgrA-DNA mod 0.3 and Sa helicase inh -15.0.
Screening O=C(COC(=O)/C=C/c1ccccc1)NC1CC1 returned Sa helicase inh 1.0.
Screening O=C(CCc1ccc(S(=O)(=O)N2CCCCCC2)cc1)NC1=NCCS1 returned Sa helicase inh -15.0.
Screening COc1c2ccccc2c(OC)c2ccccc12 returned Sa helicase inh -16.0.
C#CC1(n2c(-c3ccccc3)nc3ccccc3c2=O)CCCCC1 was read as MgrA-DNA mod -1.4.
Screening FC(F)(F)c1cnc(N2CCSCC2)c(Cl)c1 returned MgrA-DNA mod 0.1.
Screening COc1ccc(-n2ncc3c2ncn2nc(COc4ccccc4C)nc32)cc1 returned Sa helicase inh -20.0.
For CCOC(=O)C1CCCN(C(=O)c2ccc(CS(=O)(=O)Cc3ccccc3C)o2)C1 (centres undefined) the results were Sa helicase inh 25.0.
Screening O=c1oc2ccccc2c(O)c1C=Nc1cccc(C(F)(F)F)c1 returned Sa helicase inh 12.0.
O=c1nc(NC2CCCC2)ccn1Cc1cccc(Br)c1 was read as MgrA-DNA mod -0.4 and Sa helicase inh 5.0.
N#Cc1c(OCC(F)(F)F)ccc(C(N)=O)c1OCC(F)(F)F was read as MgrA-DNA mod -1.5.
For ON(Cc1ccccc1)Cc1ccccc1 the results were MgrA-DNA mod -1.9.
Screening NCc1csc(-c2ccccc2)n1 returned MgrA-DNA mod 1.9 and Sa helicase inh -20.0.
O=C(NCCN1Cc2ccccc2C1=O)Nc1cccc(Cl)c1 was read as MgrA-DNA mod 0.1 and Sa helicase inh -3.0.
Screening COc1ccc(CCNC(=O)C2CCN(c3ccc(N4CCOCC4)nn3)CC2)c(OC)c1 returned MgrA-DNA mod -2.6 and Sa helicase inh 12.0.
O=C(/C=C/N1CCOCC1)c1ccc(Cl)cc1 was read as MgrA-DNA mod -0.9 and Sa helicase inh 4.0.
Screening COc1nc(N(C)S(=O)(=O)c2ccc(C)cc2)nc(C)c1Br returned MgrA-DNA mod -0.4.
`C=C[C@]1(C)C=C2CC[C@@H]3[C@](C)(CCC[C@@]3(C)C(=O)O)[C@H]2CC1O` (some centres undefined) gave MgrA-DNA mod 0.8 and Sa helicase inh 9.0.

Three records picked at random from those above:
O=C(NCCN1Cc2ccccc2C1=O)Nc1cccc(Cl)c1 was read as MgrA-DNA mod 0.1 and Sa helicase inh -3.0.
Screening COc1nc(N(C)S(=O)(=O)c2ccc(C)cc2)nc(C)c1Br returned MgrA-DNA mod -0.4.
N#Cc1c(OCC(F)(F)F)ccc(C(N)=O)c1OCC(F)(F)F was read as MgrA-DNA mod -1.5.

The listing continues:
For CC(C)(C)c1nc2c(o1)OC(N)=C(C#N)C2c1ccc(Cl)cc1Cl (centres undefined) the results were MgrA-DNA mod 1.3 and Sa helicase inh -6.0.
`CCn1cc2c(n1)-c1c(oc(C(=O)NCc3cccnc3)c1C)CC2` gave MgrA-DNA mod -0.6 and Sa helicase inh -4.0.
Screening O/N=C/c1ccn(-c2ccc(Br)cc2)c1 returned MgrA-DNA mod 0.4.
For CCOC(=O)N1CCC(NC(=O)CNC(=O)c2cccs2)CC1 the results were Sa helicase inh 8.0.
`COCCNC(=O)CN1C(=O)COc2ccccc21` gave MgrA-DNA mod -1.6 and Sa helicase inh 1.0.
`CC(=O)N1CCC(N(C(=O)Nc2ccc(C)c(C)c2)C(C)C)CC1` gave Sa helicase inh -7.0.
For NCC1OC(OC2C(N)CC(N)C(OC3OC(CO)C(O)C(N)C3O)C2O)C(N)CC1O (centres undefined) the results were MgrA-DNA mod -0.9.
CCOC(=O)N1CCC(N2Cc3cccc(C(=O)NCCCN4CCCC4=O)c3C2=O)CC1 was read as Sa helicase inh 34.0.
Screening CCOC(=O)N1CCC(NC(=O)Cc2cn(C)c3ccccc23)CC1 returned Sa helicase inh 32.0.
For O=S(=O)(c1cccc2cccnc12)N1CCCC1c1ccc(F)cc1 (centres undefined) the results were MgrA-DNA mod 1.6.
CC(C)NCC(O)COc1cccc2ccccc12 (centres undefined) was read as MgrA-DNA mod 0.3&-1.4&1.8&5.5.
Screening CC(c1cccs1)N(Cc1ccco1)C(=S)Nc1cc(F)cc(F)c1 (centres undefined) returned Sa helicase inh 9.0.
`CCOc1ccc(NC(=O)c2cc(=O)c3ccccc3o2)cc1` gave Sa helicase inh -17.0.
For CN(C)S(=O)(=O)c1ccc(C(=O)CSc2nnc(C3COc4ccccc4O3)n2C)cc1 (centres undefined) the results were Sa helicase inh 13.0.
O=S(=O)(c1ccc(F)cc1)N(CCO)CC(O)Cn1c2ccccc2c2ccccc21 (centres undefined) was read as Sa helicase inh 27.0.

A draw from above in order of heavy-atom count, descending:
CCOC(=O)N1CCC(N2Cc3cccc(C(=O)NCCCN4CCCC4=O)c3C2=O)CC1 was read as Sa helicase inh 34.0.
For CN(C)S(=O)(=O)c1ccc(C(=O)CSc2nnc(C3COc4ccccc4O3)n2C)cc1 (centres undefined) the results were Sa helicase inh 13.0.
O=S(=O)(c1ccc(F)cc1)N(CCO)CC(O)Cn1c2ccccc2c2ccccc21 (centres undefined) was read as Sa helicase inh 27.0.
Screening CC(c1cccs1)N(Cc1ccco1)C(=S)Nc1cc(F)cc(F)c1 (centres undefined) returned Sa helicase inh 9.0.

(listing goes on)
CN(CCOC(=O)c1ccc(OC(F)(F)F)cc1)c1ccc(C#N)cn1 was read as MgrA-DNA mod -1.6.
Screening O=C(Nc1ncccn1)C1CCCCC1 returned MgrA-DNA mod -2.1 and Sa helicase inh 1.0.
CCOc1nc2cnccc2n(CC(=O)NCc2ccco2)c1=O was read as Sa helicase inh 10.0.
CCSCCOC(=O)C1=C(C)NC2=C(C(=O)CC(c3ccc(OC)cc3)C2)C1c1ccc(OC)c(OC)c1 (centres undefined) was read as MgrA-DNA mod -0.5.
OCCn1c(CN2CCCCC2)nc2ccccc21 was read as MgrA-DNA mod -2.2 and Sa helicase inh 8.0.
Cc1cc(C)c2c(-n3cccc3)nn(CC(=O)N3CCCCC3)c2n1 was read as Sa helicase inh -16.0.
Cc1cc(-c2ccc(S(=O)(=O)N3CCC(C)CC3)s2)n[nH]1 was read as Sa helicase inh 4.0.
Screening COc1ccc(OCCSCC(=O)N2CCN(c3ccc(OC)cc3)CC2)cc1 returned Sa helicase inh -4.0.
For Cc1cc(NC(=O)C2COc3ccccc3O2)no1 (centres undefined) the results were MgrA-DNA mod 1.0 and Sa helicase inh 11.0.
Screening Cc1cc(N2CCN(C)CC2)ccc1NC(=O)C1CC(=O)N(Cc2ccccc2Cl)C1 (centres undefined) returned Sa helicase inh -1.0.
CC(C)N(Cc1nc(-c2ccc(Cl)cc2)no1)C(=O)Cc1ccccc1 was read as Sa helicase inh -14.0.
Screening Cc1cccc(N2CCN(CC(O)c3ccc4cc[nH]c4c3)CC2)c1C (centres undefined) returned Sa helicase inh 9.0.
Screening Cc1ccc(NC(=O)c2c[nH]c(=O)[nH]c2=O)cc1 returned Sa helicase inh 4.0.
O=C(Cn1cnc2scc(-c3ccccc3)c2c1=O)N1CCCCC1 was read as MgrA-DNA mod 4.3 and Sa helicase inh 17.0.
`NS(=O)(=O)c1cc2c(cc1Cl)NCNS2(=O)=O` gave MgrA-DNA mod -3.2&6.0&1.9.
`CCC(CC)NC(=O)COc1cccc2c1OC(C)(C)C2` gave Sa helicase inh -11.0.
C/C(N)=C(/C#N)C(=O)CSc1nnc(Cc2cccc3ccccc23)n1N was read as Sa helicase inh 3.0.
N#Cc1ccc(CSc2nc3ncccc3c(=O)n2Cc2ccccc2)cc1 was read as MgrA-DNA mod -1.4 and Sa helicase inh 12.0.
CN1C2CCC1CC(OC(=O)c1c[nH]c3ccccc13)C2 (centres undefined) was read as MgrA-DNA mod -0.8 and Sa helicase inh -10.0.
Screening CC1(C)C2CCC(C2)C1C/C=N/NC(N)=O (centres undefined) returned Sa helicase inh -14.0.
Screening O=C(O)CC1CCCCN1 (centres undefined) returned MgrA-DNA mod -2.4 and Sa helicase inh 0.0.
CN(C)S(=O)(=O)N1CCN(S(=O)(=O)N2CCCCCC2)CC1 was read as MgrA-DNA mod -3.2 and Sa helicase inh -7.0.
Screening Cc1sc(NC(=O)c2ccc(Br)s2)c(C(N)=O)c1C returned MgrA-DNA mod 1.2 and Sa helicase inh -2.0.
Screening CS(=O)(=O)n1nccc1-c1ccc(-c2ccc(F)cc2F)o1 returned MgrA-DNA mod 0.9.
Screening O=S(=O)(NCCc1csc(-c2cccnc2)n1)c1ccccc1 returned MgrA-DNA mod -1.0 and Sa helicase inh 16.0.
Screening Cc1ccc(S(=O)(=O)N(C)CC(=O)OCc2nnc(-c3ccccc3)o2)cc1 returned Sa helicase inh -13.0.
`CCn1c(CCc2ccccc2)n[nH]c1=S` gave MgrA-DNA mod 5.1 and Sa helicase inh -7.0.
`Nc1ncnc(SCc2ccc(Cl)cc2)n1` gave MgrA-DNA mod -2.6.
`O=C(NCc1ccc(-c2cccs2)s1)c1ccc(N2CCOCC2)nc1` gave MgrA-DNA mod 0.9.
For O=C(O)CCc1nc2ccccc2n1CCC(=O)O the results were MgrA-DNA mod -3.6.
`O=C(Nc1cccnc1)/C(N=Nc1cccnc1)=C(\O)c1ccccc1` gave Sa helicase inh -3.0.
`CC1CC1C(=O)OCC(=O)Nc1ccccc1Br` (centres undefined) gave MgrA-DNA mod 3.4 and Sa helicase inh 32.0.
CCCCN(CCCC)C(=O)CSc1nc2sc(C)c(C)c2c(=O)[nH]1 was read as MgrA-DNA mod 3.1.
For O=C1/C(=C\c2ccco2)SC(=S)N1CCC(=O)N(CCO)c1ccccc1 the results were Sa helicase inh -12.0.
For COC(=O)c1cc(CSc2nc3ccccc3[nH]2)oc1C the results were Sa helicase inh 1.0.
`C/C=N/N(C)c1cc(=O)n(C)c(=O)[nH]1` gave MgrA-DNA mod -5.0 and Sa helicase inh 7.0.
CCn1c(SCC(=O)N=Nc2c(O)[nH]c3ccccc23)nc2ccccc21 was read as Sa helicase inh 6.0.
O=C(CC(C(=O)O)c1ccccc1)c1cccs1 (centres undefined) was read as MgrA-DNA mod -5.0.
Screening CC1CCc2c(sc(NC(=O)C3c4ccccc4Oc4ccccc43)c2C(N)=O)C1 (centres undefined) returned MgrA-DNA mod 1.2 and Sa helicase inh 13.0.
Screening Cc1ccc(C2CC(c3cccs3)=NN2C(=O)CSc2nnc(CNC(=O)c3cccs3)n2C)cc1 (centres undefined) returned Sa helicase inh 4.0.
For O=C(c1cccc(Cl)c1)N1CCn2c1nc1ccccc12 the results were Sa helicase inh 5.0.
